Screening results from PubChem.
H5N1 CPE: antiviral screen in MDCK cells, H5N1 avian flu; cytopathic effect, luminescence, 72 h; stronger effect = higher value; no value below 0 was filed and about half of the inactive calls have no number; reference of the scale not given here; inhibition, % at 50 µM; 0.07% of 96,000 active; AID 740; in the data active means inhibition above about 25%
* = called active by the depositor; i = inactive. Some of the compounds tested; count on the stated rates, not on these rows.

The opening six compounds, ahead of the listing:
SMILES | H5N1 CPE
COc1ccc(N2C(=O)CCC(C(=O)NCc3ccccn3)C2c2ccc(OC)c(OC)c2)cc1 (stereo unspecified) | 0.7
NNC(=O)c1cccc(COc2ccccc2Br)c1 | i
Cc1ccc(NC(=O)N2CCN(c3ccccn3)CC2)cc1 | 0.2
COc1ccc(N(CC(=O)NCc2ccccc2)S(=O)(=O)c2c(C)nn(C)c2C)cc1 | 1.2
Cc1ccc(-c2noc(-c3ccccc3C(=O)NCC3CCCO3)n2)cc1 (stereo unspecified) | i
CC(C)(C)OC(=O)N[C@@H](Cc1ccccc1)c1nnc(S(=O)(=O)Cc2ccccc2)o1 | 1.7

The whole of this part, from the first entry:
SMILES | H5N1 CPE
COc1ccc(N2C(=O)CCC(C(=O)NCc3ccccn3)C2c2ccc(OC)c(OC)c2)cc1 (stereo unspecified) | 0.7
NNC(=O)c1cccc(COc2ccccc2Br)c1 | i
Cc1ccc(NC(=O)N2CCN(c3ccccn3)CC2)cc1 | 0.2
COc1ccc(N(CC(=O)NCc2ccccc2)S(=O)(=O)c2c(C)nn(C)c2C)cc1 | 1.2
Cc1ccc(-c2noc(-c3ccccc3C(=O)NCC3CCCO3)n2)cc1 (stereo unspecified) | i
CC(C)(C)OC(=O)N[C@@H](Cc1ccccc1)c1nnc(S(=O)(=O)Cc2ccccc2)o1 | 1.7
CCOC(=O)C1=NN(C(=O)c2ccc(C)cc2)C(O)(c2ccc(Cl)cc2)C1 (stereo unspecified) | i
CC(C)(C)c1nn(-c2ccccc2)c2[nH]c(=O)c(CNc3ccc4c(c3)OCCO4)cc12 | 0.4
COc1ccc(C(=O)/C=C/Nc2ccccn2)cc1 | i
COC(=O)c1cc(-c2ccc(OC)c(OC)c2)on1 | i
CCCSc1nc(C)cc(C)c1S(=O)(=O)c1ccccc1C | 1.7
CC1Cc2nc(SCC(=O)Nc3ccc4c(c3)OCO4)n(Cc3ccccc3)c(=O)c2S1 (stereo unspecified) | i
Cc1cc2nncn2c(Cc2ccccc2)n1 | 0.1
CCOC(=O)C1CCN(Cc2ccc(OC)c(C)c2OC)CC1 | i
O=C(CSc1nc2ccccc2s1)CSc1nc2ccccc2s1 | i
Cc1cc(C)c(C(=O)C2OC(=O)C(C)(C)C(=O)C2(C)C)c(C)c1 (stereo unspecified) | i
CCn1c(=O)cc(OCC(=O)NCc2ccc(C)o2)c2ccccc21 | i
O=C(Nc1cccc(-c2cn3ccccc3n2)c1)C1CC1 | 1.3
O=C(NCCCn1ccnc1)c1ccc(Br)o1 | 1.1
CCOC(=O)CS(=O)(=O)c1ccccc1 | i
c1cncc(-c2noc(CC3CCCCC3)n2)c1 | 0.5
Cc1ccc(NS(=O)(=O)c2cc(C(=O)O)ccc2Cl)cc1 | 0.1
Cc1cccc(N2CCN(c3ccc(NC(=O)/C=C(/C(=O)O)c4ccccc4)cc3)CC2)c1 | i
Cc1cc(C(=O)OCC(=O)c2ccc3c(c2)NC(=O)CO3)c2ccccc2n1 | 0.4
CC(=O)C1(O)C(C)CC2C3CCC4CC(O)CCC4(C)C3=CCC21C (stereo unspecified) | 0.2
Cc1cc(C)cc(-n2nc(C)cc2N)c1 | i
COC(=O)c1cc(-c2c(C)oc3cc(OC)ccc3c2=O)c(C)o1 | i
O=C(O)C1C2C=CC(C2)C1C(=O)NC1CCN(Cc2ccccc2)CC1 (stereo unspecified) | i
Cc1c(Br)c(C(F)(F)F)nn1CC(=O)N1CCCC1 | 0.4
O=C(Cn1cc2c(n1)CCCC2)NCCCN1CCCC1 | 0.5
CCOC(=O)c1cn(-c2ccccc2)nc1-c1cccnc1 | i
CCCc1cc(=O)[nH]c(SCC(=O)OCc2ccccc2)n1 | i
COc1ccc(CN2CCN(C(=O)c3cccs3)CC2)cc1Br | 0.4
CC(CN1CCCC(C(N)=O)C1)c1ccccc1 (stereo unspecified) | i
CSc1cccc(NC(=O)CN(C)S(=O)(=O)c2ccc(F)cc2)c1 | i
Cc1ccnc(SCCn2c(N3CCC(C)CC3)nc3c2c(=O)[nH]c(=O)n3C)n1 | 2.3
COc1ccc(NC(=O)c2cn(-c3ccccc3)nc2-c2cc3ccccc3o2)cc1 | i
O=C(O)c1cccc(CSc2nnc(Cc3ccccc3)o2)c1 | 0.3
COc1ccc(N(CC(=O)NCc2cccs2)S(=O)(=O)c2c(C)n[nH]c2C)cc1 | 1.0
CC(=O)N1CCN=C1SCc1ccc(F)cc1 | 1.5
COc1ccccc1NC1SC(=O)N(c2ccccc2)C1=O (stereo unspecified) | i
CCC1CCC2(CC1)NNC(=S)NN2 | i
C=CCOc1c(CNc2ccc(C(=O)O)cc2)cccc1OCC | 0.1
Clc1cccc(-c2nc(NCc3cccnc3)c3ccccc3n2)c1 | 1.8
CCOC(=O)N1CCN(C(=O)COc2ccc(S(=O)(=O)NC3CCCCC3)cc2C)CC1 | 0.6
CC1CN(CCCOc2ccccc2[N+](=O)[O-])CC(C)O1 (stereo unspecified) | 0.3
COc1ccc(C2C(C(=O)NCc3cccnc3)c3cc(OC)c(OC)cc3C(=O)N2C)cc1 (stereo unspecified) | i
CCOC(=O)CSC1=C(C#N)C(=O)NC(c2ccc(OC)c(OC)c2)S1 (stereo unspecified) | 0.7
COC(=O)c1sc2nc(CN3CCOCC3)nc(N3CCOCC3)c2c1C | 1.8
Cc1cc(C)nc(SCc2nnc(SCC(=O)Nc3ccc(C)c(C)c3)o2)n1 | 0.3
CCOC(=O)c1cccc(NC(=O)c2ccco2)c1 | i
COc1ccc(C(=O)OCC(=O)c2ccc(C3CCCCC3)cc2)cc1 | 0.4
Nc1nc(-c2ccc(Cl)cc2)nn1C(=O)c1cccnc1 | 4.3
Cc1ccc2c(c1)NC(=O)C(CC(=O)O)O2 (stereo unspecified) | 1.7
O=C(c1cc(-c2ccncc2)nc2ccccc12)N1CCN(c2ccc(N3CCOCC3)nn2)CC1 | 0.7
COc1cccc(NC(=O)CN(c2cccc(C(F)(F)F)c2)S(C)(=O)=O)c1 | 1.2
O=C1C2C3CCCC3=C3CCCC3C2C(=O)N1c1ccccc1 (stereo unspecified) | 6.4
S=C(Nc1ccccc1Cl)Nc1ccc(Cl)cc1Cl | 0.9
CC1=C(C(=O)NC(C)c2ccc3c(c2)OCCO3)C2(CCC(C)CC2)OC1=O (stereo unspecified) | i
CC(C)Cc1nnc(NC(=O)CSc2ccccn2)s1 | i
Further results
SMILES | H5N1 CPE
CCCOc1ccc(-c2nnn(CC(=O)c3c[nH]c4ccccc34)n2)cc1 | i
CCn1cnc2sc(C(=O)N(Cc3ccc(N(C)C)cc3)Cc3ccco3)c(C)c2c1=O | i
Cn1c(=O)c2c(-c3ccccc3)n(-c3ccccc3O)cc2n(C)c1=O | i
O=C(c1ccco1)N1CCN(C(c2ccccc2Cl)c2nnnn2Cc2ccco2)CC1 (stereo unspecified) | i
CC(=O)N1CCC2(CC1)CC(=O)c1cc(OCC(=O)NCc3ccc(C)cc3)ccc1O2 | 3.1
Cc1cc(NCCN2CCCCC2)n2c(nc3ccccc32)c1C#N | 1.4
N#Cc1cc(-c2ccccc2)oc1NC(=O)c1ccco1 | 2.0
O=C(CCN1C(=O)C2C3C=CC(C3)C2C1=O)Nc1ccc2c(c1)OCO2 (stereo unspecified) | i
COc1ccc(C(=O)CCN2CCCCCC2)cc1 | i
CCCSc1nc(C)cc(C)c1C(N)=O | i
COc1ccc(CC(=O)Nc2cc(C)on2)cc1 | 0.8
Cn1c(CCC(=O)Nc2ccc(N3CCOCC3)cc2)nc(=O)c2ccccc21 | i

Shown with each value named: three of the compounds above.
mol: COC(=O)c1cc(-c2ccc(OC)c(OC)c2)on1
  H5N1 CPE: i

mol: CCCSc1nc(C)cc(C)c1S(=O)(=O)c1ccccc1C
  H5N1 CPE: 1.7

mol: CC1Cc2nc(SCC(=O)Nc3ccc4c(c3)OCO4)n(Cc3ccccc3)c(=O)c2S1 (stereo unspecified)
  H5N1 CPE: i

(further entries)
SMILES | H5N1 CPE
COc1cc(NC2c3ccccc3C(=O)N2c2ccc(C)cn2)cc(OC)c1OC (stereo unspecified) | i
CCOc1ccc2cc(/C=C/C(=O)c3ccco3)c(Cl)nc2c1 | i
O=C(COc1ccc2ccccc2c1)NC1CC1 | i
CCOc1ccc(S(=O)(=O)N2CCN(Cc3ccccc3)CC2)c2cccnc12 | 2.3
Cc1cc(C)n(CC2CC(=O)N(c3ccc(F)c(Cl)c3)C2=O)n1 (stereo unspecified) | i
Cn1cc(S(=O)(=O)Nc2ccc(F)cc2F)c(=O)n(C)c1=O | 1.3
CCOC(=O)N1CCC(NC(=O)c2cc(C)c3c(C)nn(-c4ccccc4)c3n2)CC1 | i
CCc1nnc(NC(=O)CCC(=O)N2CCN(c3ccccn3)CC2)s1 | i
CCOC(=O)c1c(NS(=O)(=O)c2cccc(OC)c2)sc2c1CCC2 | 0.1
O=C(NC12CC3CC(CC(C3)C1)C2)C1=COCCO1 | 2.0
CC(C)NCC(O)COc1c(F)cc(Br)cc1F (stereo unspecified) | i
CCC(=O)NC1(C(F)(F)F)C(=O)NC(C)=C1C#N (stereo unspecified) | i

An excerpt of these results, with each value named.
> COc1cc(NC2c3ccccc3C(=O)N2c2ccc(C)cn2)cc(OC)c1OC (stereo unspecified)
  H5N1 CPE: i
> CCOc1ccc2cc(/C=C/C(=O)c3ccco3)c(Cl)nc2c1
  H5N1 CPE: i

(further entries)
SMILES | H5N1 CPE
Cc1ccc(NC(=O)CS(=O)CC(=O)N(C2CCCC2)C(C)C(=O)NC2CCCCC2)cc1 (stereo unspecified) | 0.1
CC1CCC(n2c(=S)[nH]c3ccccc3c2=O)CC1 (stereo unspecified) | 1.3
COc1ccc(C)cc1S(=O)(=O)N(CC(=O)Nc1ccc2c(c1)OCCO2)Cc1ccccc1 | i
Cc1ccc(CO/N=C/C2=C(Cl)c3ccccc3CC2)cc1 | i
CSc1cc(C)nc(NC(C)=O)n1 | 0.1
CCOC(=O)Cc1c(C)[nH]c(=S)[nH]c1=O | i
CS(=O)(=O)N1CCC(C(=O)Nc2ccc(Oc3ccccc3)cc2)CC1 | i
CCOC(=O)C1=C(C)N=c2s/c(=C3\C(=O)Nc4ccccc43)c(=O)n2C1c1ccc2c(c1)OCO2 (stereo unspecified) | i
Cc1ccc(-c2nc3cccnc3o2)cc1NC(=O)COc1ccc(C(C)(C)C)cc1 | 1.1
Cc1ccnc2nc(C(=O)OCC(=O)Nc3ccc4c(c3)OC(F)(F)O4)nn12 | i
O=C(CCCOc1ccc(Cl)cc1)Nc1nncs1 | 1.0
COC(=O)C1=C(C)N(C2CCCCC2)C(=O)C1 | 0.3

Arranged by SMILES length (highest first): some entries from above.
SMILES | H5N1 CPE
COc1ccc(C)cc1S(=O)(=O)N(CC(=O)Nc1ccc2c(c1)OCCO2)Cc1ccccc1 | i
Cc1ccnc2nc(C(=O)OCC(=O)Nc3ccc4c(c3)OC(F)(F)O4)nn12 | i
COC(=O)C1=C(C)N(C2CCCCC2)C(=O)C1 | 0.3

Carrying on:
SMILES | H5N1 CPE
COc1cc2c(cc1OC)C1=C(C#N)CN(C3CCCCC3)CN1CC2 | 0.2
COc1ccc(S(=O)(=O)Nc2nc3ccccc3s2)cc1 | 0.8
C=CCNCCOCCOc1ccc(C)cc1[N+](=O)[O-] | 3.4
Nc1nc(CN2CCN(c3ccccc3F)CC2)nc(Nc2ccc3c(c2)OCCO3)n1 | 0.5
COc1ccc(NC(=O)CN2CCCN(S(=O)(=O)c3ccc(F)cc3)CC2)cc1 | 0.9
COc1ccc(C(=O)NCS(=O)(=O)c2ccc(C)cc2)cc1 | i
CCCOc1ccc(N2C(=O)CC(NCCc3ccc(S(N)(=O)=O)cc3)C2=O)cc1 (stereo unspecified) | i
CCOc1cccc(CNCCNC(=O)c2nonc2N)c1 | i
CCOC(=O)CN(C(=O)CSc1nnc(CNc2ccc(F)cc2)n1C)c1ccccc1 | 1.9
Cc1nn(C(C)C(=O)Nc2ccc(Cl)cn2)c(C)c1[N+](=O)[O-] (stereo unspecified) | 0.5
COc1ccc(C)cc1S(=O)(=O)Nc1ccccc1C | 2.2
CCCNC(=O)c1ccc(Cl)c(Cl)c1 | i
CC(C)(C)c1ccc(-c2nc(C#N)c(NCc3cccnc3)o2)cc1 | 6.1
COc1ccc(Cl)cc1C(=O)CSc1nc(N)cc(N)n1 | i
O=C1c2ccc(Oc3ccc4c(c3)C(=O)N(CCCCO)C4=O)cc2C(=O)N1CCCCO | i
CCOc1ccc(-n2cnnn2)cc1S(=O)(=O)N1CCCCC1 | 0.8
O=C(O)CSCC(=O)NCc1ccccc1 | 0.9
Cc1cc(C)cc(NC(=O)CSc2nnc(Cc3cccn3C)n2-c2ccc(F)cc2)c1 | i
CN(C)c1ccc(/C=C(/NC(=O)c2ccccc2)C(=O)N/N=C/c2ccc([N+](=O)[O-])c(O)c2)cc1 | i
CC(C)[C@H](NS(=O)(=O)c1ccccc1)C(=O)OCn1nnc2ccccc2c1=O | i
CCOc1ccc(N(CC(=O)Nc2ccc(C)cc2)S(=O)(=O)c2c(C)noc2C)cc1 | i
COc1ccc(-c2[nH]nc3c2C(c2ccccc2OC(=O)N2CCOCC2)C(C#N)=C(N)O3)cc1 (stereo unspecified) | i
Cc1ccn2cc(CNC(=O)c3cccs3)nc2c1 | 1.6
O=C(CSc1nncc2ccccc12)N1CCOCC1 | 7.0
CN1CCN(C(=O)C2CC(c3c(F)cccc3Cl)=NO2)CC1 (stereo unspecified) | i
COC(=O)c1ccc(C(=O)OC)c(NC(=O)Nc2ccc3c(c2)OCO3)c1 | i
Cc1ccc(NC(=O)/C(=C/c2cccc([N+](=O)[O-])c2)NC(=O)C2CCCCC2)cc1 | i
COC(=O)c1onc(-c2ccccc2)c1C(=O)OC | i
CSc1ccc(-c2nnn(CC(=O)NCc3ccccc3)n2)cc1 | 0.6
CC1Cc2cc(/C(O)=C3/C(=O)C(=O)N(CCCn4ccnc4)C3c3cccnc3)ccc2O1 (stereo unspecified) | 0.2
Cc1ccc(NC(=O)CSc2nc(NS(=O)(=O)c3ccc(C)cc3)cc(=O)[nH]2)cc1 | i
CC(C)CN(CC(C)C)S(=O)(=O)N1CCC(C(=O)NCCc2ccc(Cl)cc2)CC1 | i
Cc1cc(C)n(Cc2nc3ccccc3n2C)n1 | 1.0
Cc1cc(Cl)c(S(=O)(=O)NCc2ccncc2)cc1OCC(N)=O | 1.0
CC(C)CNc1cc(Cl)c(S(=O)(=O)NCC(C)C)cc1C(=O)O | 0.3
Cc1ccc(S(=O)(=O)N(C)CCCC(=O)N2CCN(C=O)CC2)cc1 | 4.9
Cc1cccc(NC2=NC(=S)N(c3ccc(C(=O)O)cc3)C23CCCCC3)c1 | i
